Mtb growth = M. tuberculosis H37Rv growth inhibitors, H37Rv strain (AID 1626). inhibition, % at 10 µM, or IC50 in µM where a hit was titrated. 0.95% of 220,000 active. M. tuberculosis H37Rv growth inhibition; higher % means a stronger effect;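 active = confirmed in a dose series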;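 note: bacteria incubated seven days before Alamar blue readout; 0% = bacteria only wells and 100% = bacteria with antibiotic wells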
YopH PTP inh = YopH (Yersinia) phosphatase inhibition | inhibition, %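 (about 10 µM by stock and volumes)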 | fluorescence Ex485/Em525 | 0.16% of 140,000 active | AID 898;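 active = inhibition of 50% or more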;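 note: controls were vehicle for no effect and minimum signal wells for full effect; inactives centre near -20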
RecA splice inh = Mtb RecA intein splicing inhibition; P9WHJ3; 0.75% of 290,000 active; inhibition, %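 (about 9 µM by stock and volumes)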; cell-free RecA intein splicing, fluorescence; in the data active = inhibition above about 30%;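 note: 0% = vehicle wells and 100% = reference inhibitor control wells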
Target sequence (P9WHJ3 whole entry, looked up, canonical isoform): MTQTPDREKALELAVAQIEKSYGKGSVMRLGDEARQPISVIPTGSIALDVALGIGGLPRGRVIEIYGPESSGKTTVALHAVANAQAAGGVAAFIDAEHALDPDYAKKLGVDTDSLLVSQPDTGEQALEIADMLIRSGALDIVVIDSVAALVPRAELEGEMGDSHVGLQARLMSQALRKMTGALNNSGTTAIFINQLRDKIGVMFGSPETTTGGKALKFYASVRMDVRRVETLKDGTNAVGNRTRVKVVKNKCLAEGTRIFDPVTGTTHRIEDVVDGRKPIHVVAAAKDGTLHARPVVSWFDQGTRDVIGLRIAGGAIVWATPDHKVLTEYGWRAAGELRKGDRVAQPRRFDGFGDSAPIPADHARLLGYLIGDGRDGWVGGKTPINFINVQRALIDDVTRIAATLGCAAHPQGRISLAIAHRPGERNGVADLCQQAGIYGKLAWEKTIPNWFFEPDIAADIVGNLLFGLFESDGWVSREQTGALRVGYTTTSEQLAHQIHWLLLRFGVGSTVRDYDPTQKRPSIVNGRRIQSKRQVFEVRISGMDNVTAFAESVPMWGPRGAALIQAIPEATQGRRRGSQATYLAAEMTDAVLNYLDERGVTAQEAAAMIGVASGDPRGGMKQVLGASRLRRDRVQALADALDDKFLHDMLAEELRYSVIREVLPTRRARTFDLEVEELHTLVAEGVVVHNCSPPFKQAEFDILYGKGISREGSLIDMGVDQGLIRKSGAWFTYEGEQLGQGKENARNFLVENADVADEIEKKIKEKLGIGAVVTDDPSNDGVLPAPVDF
Mtb bLac sens = beta-lactam sensitization of Mtb H37Rv; 0.27% of 330,000 active; M. tuberculosis H37Rv growth with meropenem, percent inhibition; hits of this screen are not shown here; inhibition, % at 25 µM;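 active = about 74% or more and at least 40 points above the plate without the antibiotic, then above 30% in a dose series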;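 note: growth measured after seven days incubation then overnight dye step; 0% = bacteria only wells and 100% = bacteria with antibiotic; twin plates without the antibiotic show which effects depend on it; some results filed as inactive read as strong as hits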
Arbovirus inh = arbovirus infection inhibition; arbovirus infection cell-based antiviral screen; inhibition, % at 10 µM; 0.37% of 200,000 active;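 active = inhibition from about 30%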;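 note: bluetongue infection of BSR cells; cell survival read as ATP light after 72 h; 0% = infected wells without compound and 100% = uninfected wells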
Arbovirus inh repeat = recorded beside Arbovirus inh, whose call it bears; inhibition, %; measured here: 10K subset replicate screen; many hits read low in the repeat;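 first of two repeat runs on a subset; 0% = infected and 100% = uninfected wells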
The depositor's hits bear a star; nt = no result given.

SMILES | Mtb growth | YopH PTP inh | RecA splice inh | Mtb bLac sens | Arbovirus inh | others
c1ccc(CNCCC(Cc2ccccc2)c2ccco2)cc1 (centres undefined) | 12% | nt | 1.6 | 4 | nt
O=C(CSc1ccccc1)Nc1ccccc1C(=O)N1CCCC1 | -4% | nt | 0.2 | 2 | 6
O=C(Cn1ccc2ccccc2c1=O)NCCC(=O)N1CCN(C(=O)c2ccco2)CC1 | nt | -32 | nt | -4 | nt
Cn1c(=O)c(C(=O)COc2ccc(F)cc2Cl)c(N)n(Cc2ccccc2)c1=O | 17% | nt | -4.3 | 1 | -4
NC(=O)c1nsc(C(=O)N(Cc2cccnc2)C(C(=O)NC2CCCCC2)c2ccc(F)cc2)c1N (centres undefined) | nt | nt | -3.1 | -2 | nt
Cc1ccc(N(C(=O)CNC(=O)c2ccco2)C(C(=O)NC2CCCC2)c2ccncc2)cc1 (centres undefined) | nt | nt | 0.0 | -2 | nt
CCOc1cc(C2C(C(=O)c3ccc(C)o3)=C(O)C(=O)N2CCc2ccccc2)ccc1O (centres undefined) | -3% | -39 | 2.4 | 2 | -11
CC1(C)CC(NC(=O)c2ccc(Cl)c(S(=O)(=O)N(Cc3ccccc3)c3ccccc3)c2)CC(C)(C)N1 | nt | nt | 11 | 83 | nt
CC(C)C(=O)Nc1cc(S(=O)(=O)Nc2ccc(Cl)cc2)ccc1Cl | -2% | -24 | 2.4 | -2 | 2
CN(C(=O)COC(=O)c1ccccc1SCC(=O)N1CCCC1)c1ccccc1 | nt | nt | 4.7 | -7 | nt
Cc1cccc(N2CCN(C(=O)CCNS(=O)(=O)c3ccc4c(c3)oc(=O)n4C)CC2C)c1 (centres undefined) | nt | nt | -1.5 | 2 | nt
N#CCC(=O)N/N=C/c1cn(Cc2ccc(Cl)c(Cl)c2)c2ccccc12 | -6% | nt | 1.0 | 2 | nt
Cc1cc(C)c(S(=O)(=O)NCC(=O)NCc2ccco2)c(C)c1 | nt | nt | -1.0 | 3 | 4
CCSc1nnc(NC(NC(=O)c2ccco2)(C(F)(F)F)C(F)(F)F)s1 | 11% | -26 | 1.1 | 1 | 7
O=c1oc2c3c4c(cc2c(C(F)(F)F)c1CCN1CCOCC1)CCCN4CCC3 | -16% | -12 | -52 | 2 | 10

Quoted at random: two compounds from above.
SMILES | Mtb growth | YopH PTP inh | RecA splice inh | Mtb bLac sens | Arbovirus inh | others
O=C(CSc1ccccc1)Nc1ccccc1C(=O)N1CCCC1 | -4% | nt | 0.2 | 2 | 6
O=c1oc2c3c4c(cc2c(C(F)(F)F)c1CCN1CCOCC1)CCCN4CCC3 | -16% | -12 | -52 | 2 | 10

Other records follow.
SMILES | Mtb growth | YopH PTP inh | RecA splice inh | Mtb bLac sens | Arbovirus inh | others
COc1ccc(CN(C)C(=O)c2ccc(OCC(=O)Nc3cccc(C(F)(F)F)c3)c(OC)c2)c(OC)c1 | nt | nt | 2.7 | 8 | nt
Cc1cccc(C)c1NC(=O)NCCSc1snnc1C | 4% | nt | -0.8 | 2 | -2
O=C1OCC2=C1C(c1ccc(Cl)cc1)CC(=O)N2c1ccc(F)cc1 (centres undefined) | -3% | nt | -1.0 | 2 | 7
COc1cccc2cc(C(=O)NCc3ccc(Cl)cc3)c(=O)oc12 | nt | nt | -0.9 | 85 | nt
CC(=O)NCC(=O)OC(C(=O)c1ccccc1)c1ccc(Cl)cc1 (centres undefined) | -3% | -20 | 0.3 | 4 | -5
CC1(C)CC(=O)c2cc(C(=O)NCc3ccco3)c(=O)n(-c3ccccc3)c2C1 | -19% | -22 | -0.5 | nt | -2
Clc1cccc(-c2noc3ncnc(Nc4ccc5c(c4)OCO5)c23)c1 | nt | nt | -0.6 | 15 | nt
COc1ccc(NC(=S)N/C(=N/CS(=O)(=O)c2ccccc2)c2ccccc2)cc1 | 4% | -10 | 2.2 | 12 | -10
Cc1ccc(CN2CCN(Cc3cc4ccccc4o3)CC2CCO)cc1 (centres undefined) | nt | nt | -2.6 | -5 | nt
Cc1nc2ccccc2nc1OCc1ccccc1 | -4% | 1 | 1.1 | 42 | 8
CC1(C)CC(=O)C/C(=N\NC(=O)C2CC2c2ccccc2)C1 (centres undefined) | 1% | nt | nt | -1 | 2
N=C(N)Sc1nc(N2CCCCC2)nc(N2CCCCC2)n1 | -9% | nt | 2.3 | -8 | -3
CN1C[C@@H]2C[C@@H](C3=Cc4cc(Cl)ccc4OC3)N3CCC[C@@]23C1=O | -3% | nt | -0.9 | 0 | 16
N#C/C(=C\c1c(N2CCN(c3ccccc3)CC2)nc2ccccn2c1=O)C(N)=O | nt | nt | -22 | -7 | nt
Cc1cccc(NC(=S)N(CCCN2CCCC2)Cc2cccn2Cc2ccc(Cl)cc2)c1 | 15% | nt | 3.0 | 57 | -31
O=C(CSc1nc2cc(Cl)ccc2o1)N1CCOCC1 | -11% | 8 | nt | -3 | -3
COc1ccc(/C=C2\SC(=S)N(C(Cc3ccccc3)C(=O)O)C2=O)cc1 (centres undefined) | 2% | nt | 19 | nt | -4
O=C(COc1ccc(Cl)cc1)Nc1ccc2[nH]ncc2c1 | nt | nt | -1.2 | 5 | nt
CCOC(=O)c1ccc(NC(=O)CSc2nnc(-c3cccs3)n2CC)cc1 | -17% | -19 | 0.0 | 0 | 3
CN(C)CCN(C(=O)c1ccc2c(c1)CCCC2)c1nc2cc3c(cc2s1)OCCO3 | nt | nt | 12 | 0 | nt
CCOCCOC(=O)C1=C(C)N(C)C(=O)NC1c1cc(Cl)c(O)c(OC)c1 (centres undefined) | -6% | -13 | 2.3 | -10 | 6
NC(CCCCc1ccccc1)c1cccc2ccccc12 (centres undefined) | nt | nt | 12 | 97 | nt
Cc1c(Oc2cc(NN3CCCCC3)c([N+](=O)[O-])cc2[N+](=O)[O-])cccc1[N+](=O)[O-] | nt | nt | 2.3 | -8 | nt
Cc1nnc(CN(C)C(=O)c2cc(COc3ccc(F)cc3Cl)on2)o1 | nt | nt | 3.6 | -5 | nt
Cc1noc(C)c1CSCC(=O)OCC(=O)Nc1sccc1C#N | -4% | -40 | 1.6 | -6 | 4
Cc1cc(NC(=O)CCC(=O)N(CC(=O)NCC2CCCO2)c2ccc(C(C)C)cc2)no1 (centres undefined) | nt | nt | 0.4 | -3 | nt
CC1(OC(=O)C2CCCC2)C(=O)C=C2C=C(c3ccsc3)N(c3ccccc3)C=C2C1=O (centres undefined) | -8% | nt | -1.6 | -8 | nt
O=C(CS(=O)(=O)c1ccccc1)c1ccc2c(c1)OCCO2 | 2% | 16 | 0.7 | 41 | -2
CCc1noc(C)c1C(=O)NCCN1C(=O)S/C(=C\c2ccc(OC)cc2)C1=O | nt | nt | -1.8 | -3 | nt
Cc1cccc(NS(=O)(=O)c2nnc(NC(=O)c3ccccc3F)s2)c1 | nt | nt | -2.2 | -1 | nt
CCCCC1CC1C(=O)Nc1ncc2c(n1)CC(C)(C)CC2=O (centres undefined) | -4% | -24 | -0.6 | -7 | 3
Cc1ccccc1OCC(O)Cn1c(SC(C)C)nc2c1c(=O)[nH]c(=O)n2C (centres undefined) | -4% | -7 | -4.7 | 9 | 8
CN(C)[C@@H]1CCC[C@@H]1OC(=O)C(c1ccccc1)c1ccccc1 | -6% | 0 | 0.5 | 0 | 3
CCn1cc(C(=O)NCC(=O)OC)c2cc(OC)c(OC)cc2c1=O | -13% | -45 | 2.8 | -4 | 6 | Arbovirus inh repeat=-1
Cc1cccc(CCNS(=O)(=O)c2ccc3c(c2)NC(=O)CO3)c1 | nt | nt | -0.6 | -6 | nt
CCn1cc(CNCc2c(C(=O)N3CCCCC3)nc3c(C)cccn23)cn1 | -2% | nt | -2.8 | 3 | -2
COCCOC(=O)c1c(C)oc2ccc(O)c(CN3CCC(C)CC3)c12 | -6% | -38 | -3.5 | 4 | 4
O=c1cc(CN2CCCCC2)nc(C2CC2)[nH]1 | 4% | nt | -4.5 | -4 | -2
O=C(Cc1cccs1)Nc1ccccc1F | nt | nt | 0.7 | -2 | nt
O=C1c2cccnc2C(=O)N1c1cccc(-c2nc3ccccc3o2)c1 | -12% | -31 | 0.4 | 4 | 4
Cc1nc(C)c(-c2ccc(SCc3ccccc3F)nn2)s1 | nt | nt | 2.9 | 1 | nt
COc1ccc(CCNC(=O)[C@H](CC(C)C)NC(=O)N2CCn3c2nc2ccccc23)cc1OC | nt | nt | 2.6 | -3 | nt
CCN(Cc1ccc(OC)c(F)c1)C(=O)c1oc2ccccc2c1COC | nt | nt | 5.2 | 5 | nt
Fc1ccc(C2NCCn3cccc32)cc1 (centres undefined) | -8% | -28 | -5.9 | -5 | 4
C=CCNC(=O)CN1CCC(n2nnc3cc(C(F)(F)F)ccc32)CC1 | 3% | nt | 0.0 | -9 | -8

17 entries from above, ordered by molecular weight, descending:
SMILES | Mtb growth | YopH PTP inh | RecA splice inh | Mtb bLac sens | Arbovirus inh | others
CC1(C)CC(NC(=O)c2ccc(Cl)c(S(=O)(=O)N(Cc3ccccc3)c3ccccc3)c2)CC(C)(C)N1 | nt | nt | 11 | 83 | nt
Cc1cc(NC(=O)CCC(=O)N(CC(=O)NCC2CCCO2)c2ccc(C(C)C)cc2)no1 (centres undefined) | nt | nt | 0.4 | -3 | nt
CCOc1cc(C2C(C(=O)c3ccc(C)o3)=C(O)C(=O)N2CCc2ccccc2)ccc1O (centres undefined) | -3% | -39 | 2.4 | 2 | -11
CC1(OC(=O)C2CCCC2)C(=O)C=C2C=C(c3ccsc3)N(c3ccccc3)C=C2C1=O (centres undefined) | -8% | nt | -1.6 | -8 | nt
O=C(Cn1ccc2ccccc2c1=O)NCCC(=O)N1CCN(C(=O)c2ccco2)CC1 | nt | -32 | nt | -4 | nt
O=c1oc2c3c4c(cc2c(C(F)(F)F)c1CCN1CCOCC1)CCCN4CCC3 | -16% | -12 | -52 | 2 | 10
CCSc1nnc(NC(NC(=O)c2ccco2)(C(F)(F)F)C(F)(F)F)s1 | 11% | -26 | 1.1 | 1 | 7
N#C/C(=C\c1c(N2CCN(c3ccccc3)CC2)nc2ccccn2c1=O)C(N)=O | nt | nt | -22 | -7 | nt
CCN(Cc1ccc(OC)c(F)c1)C(=O)c1oc2ccccc2c1COC | nt | nt | 5.2 | 5 | nt
C=CCNC(=O)CN1CCC(n2nnc3cc(C(F)(F)F)ccc32)CC1 | 3% | nt | 0.0 | -9 | -8
O=C1c2cccnc2C(=O)N1c1cccc(-c2nc3ccccc3o2)c1 | -12% | -31 | 0.4 | 4 | 4
Cc1nc(C)c(-c2ccc(SCc3ccccc3F)nn2)s1 | nt | nt | 2.9 | 1 | nt
CN(C)[C@@H]1CCC[C@@H]1OC(=O)C(c1ccccc1)c1ccccc1 | -6% | 0 | 0.5 | 0 | 3
O=C(CS(=O)(=O)c1ccccc1)c1ccc2c(c1)OCCO2 | 2% | 16 | 0.7 | 41 | -2
O=C(COc1ccc(Cl)cc1)Nc1ccc2[nH]ncc2c1 | nt | nt | -1.2 | 5 | nt
NC(CCCCc1ccccc1)c1cccc2ccccc12 (centres undefined) | nt | nt | 12 | 97 | nt
Cc1nc2ccccc2nc1OCc1ccccc1 | -4% | 1 | 1.1 | 42 | 8

Continuation.
SMILES | Mtb growth | YopH PTP inh | RecA splice inh | Mtb bLac sens | Arbovirus inh | others
Fc1ccc(-c2ccnn2-c2ccccc2)cc1 | nt | nt | 1.5 | -1 | nt
O=C(CCc1nc2ccccc2[nH]1)Nc1ccc2c(c1)OCCO2 | nt | -24 | 5.6 | -2 | -8 | Arbovirus inh repeat=-3
O=C(Nc1cc(S(=O)(=O)N2CCOCC2)ccc1O)c1ccc2c(c1)S(=O)(=O)c1ccccc1C2=O | 0% | nt | 1.0 | 1 | -4
O=C(Nc1ccc(SC(F)F)cc1)c1ccc2nccnc2c1 | -3% | 2 | 6.7 | -3 | 7
CC(=O)OCCCCCCCCCCC[N+]1(C)CCCCC1 | -1% | nt | -1.3 | -4 | -2
CCn1cc(CNC(=O)c2cc([N+](=O)[O-])c(C)c([N+](=O)[O-])c2)cn1 | 0.55µM* | -7 | 2.0 | 100 | 7
O=C(CN1C(=O)N/C(=C\c2ccccc2OCc2ccc(C(=O)O)cc2)C1=O)Nc1ccc(F)cc1 | nt | nt | 2.3 | 4 | nt
NS(=O)(=O)c1cccc(NC(=S)NCc2ccccc2)c1 | 0% | nt | 3.9 | -2 | 6
Cc1cccc(N(C(=O)c2snc(C(N)=O)c2N)C(C(=O)NCc2ccccc2)c2ccncc2)c1 (centres undefined) | nt | nt | 0.4 | 6 | nt

The list is partial; the hit share may differ from the screen's.
